GPR55 antagonists = GPR55 antagonists blocking LPI-driven arrestin recruitment, primary screen, imaging, U2OS, beta-arrestin-GFP, LPI agonist (AID 2013). U2OS GPR55 beta-arrestin-GFP translocation imaging, LPI antagonism; higher % means a stronger effect. 0.13% of 290,000 active. inhibition, % at 10 µM, or IC50 in µM where a hit was titrated;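 active means spots per cell inhibited over 60%, with over 100 cells counted and total cytoplasm intensity under 500,000; inconclusive means wells with under 100 cells, flagged as likely toxic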;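 further: U2OS cells stably carrying GPR55 and arrestin-GFP stimulated by 5 µM LPI near EC80; imaged beta-arrestin-GFP aggregate spots per cell after agonist stimulation; plate controls were LPI-stimulated DMSO wells for no effect and DMSO wells without LPI for full effect; some results filed as inactive read as strong as hits; confirmed hits need IC50 under 10 µM and bright autofluorescent wells are also inconclusive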
MgcRacGAP inhibition = MgcRacGAP GTPase-activating activity inhibitors, confirmation, biochemical, ADP Hunter fluorescence | MgcRacGAP-stimulated Rac1 GTP hydrolysis, ADP Hunter fluorescence; higher % means a stronger effect; GST-tagged Rac1 F28L mutant substrate | AID 624330 | inhibition, % at 30 µM; hits with a dose series show IC50 in µM | 0.6% of 340,000 active;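 active means first-screen hits whose inhibition reached a set limit at any dose in the follow-up dose series; inconclusive means inhibition above the set first-screen limit but never retested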;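 further: fluorescence reports GDP produced by GAP-driven GTP hydrolysis; strong numbers were not always called active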
Dengue-2 NS5 capping = Dengue-2 NS5 methyltransferase inhibitors, primary screen, biochemical, confirmation dose response (AID 588689) | Dengue-2 NS5 methyltransferase capping enzyme assay, biochemical; higher % means a stronger effect | one-dose inhibition, % at 25 µM; IC50 in µM for titrated hits | 0.3% of 340,000 active; in the data active means a potency from the dose series; inconclusive means inhibition above about 29% without an active follow-up result
Large T inhibition = TAg ATPase/helicase activity blockers – biochemical (AID 1903); 0.39% of 310,000 active; SV40 large T antigen ATPase/helicase inhibition assay; higher % means a stronger effect; one-dose inhibition, % at 20 µM; IC50 in µM for titrated hits; in the data active means a potency from the dose series; inconclusive means inhibition mostly from about 32% at the one dose, without a potency; inactive means the rest, 99 in 100 with inhibition below about 32%; further: strong numbers were not always called active
GPR35 arrestin U2OS = inhibition of zaprinast-stimulated GPR35 beta-arrestin translocation – imaging, U2OS, beta-arrestin-GFP, zaprinast agonist, primary screen (AID 2058) | inhibition, % at 10 µM, or IC50 in µM where a hit was titrated | U2OS GPR35 beta-arrestin-GFP translocation imaging, zaprinast antagonism; higher % means a stronger effect | 0.052% of 290,000 active;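 active means inhibition of at least 50% with at least 30 cells and total cytoplasm GFP at most 10,000,000; inconclusive means under 30 cells or total GFP of 10,000,000 plus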
An asterisk follows results filed as active; ? = inconclusive; nt = no result given; & = joins results of further samples. An excerpt; count on the stated rates, not on these rows.

Labels used below: A = GPR55 antagonists; B = MgcRacGAP inhibition; C = Dengue-2 NS5 capping; D = Large T inhibition; E = GPR35 arrestin U2OS
molecule: C=C1/C(=C\C=C2/CCC[C@]3(C)[C@@H]([C@H](C)CCCC(C)(C)O)CC[C@@H]23)C[C@@H](O)C[C@@H]1O
  A: 10% | B: nt | C: nt | D: ? | E: -21%
molecule: COc1cc(NS(C)(=O)=O)ccc1Nc1c2ccccc2nc2ccccc12
  A: nt | B: 31% | C: -4% | D: 25% | E: nt
molecule: COc1cccc(C(=O)Nc2cc3c(cc2N2CCOCC2)n(C)c(=O)n3C)c1
  A: 1% | B: -34% | C: -4% | D: -1% | E: 9%
molecule: CCN1CCN(c2cc3c(cc2F)c(=O)c(C(=O)O)cn3C2CC2)CC1
  A: 4% | B: 6% | C: -4% | D: 11%&7% | E: -18%
molecule: Cc1ccc(S(=O)(=O)n2c(C)nc3ccccc32)cc1
  A: 15% | B: 11% | C: 1% | D: 8% | E: 0%
molecule: O=[N+]([O-])/C=C/c1cc2ccccc2[nH]1
  A: -3% | B: 37% | C: -35% | D: 18% | E: -1%
molecule: CCCC(=O)Nc1ncnc2c1ncn2[C@@H]1O[C@@H]2COP(=O)(O)O[C@H]2[C@H]1OC(=O)CCC
  A: 4% | B: 4%&4% | C: -2%&-7% | D: 10% | E: -5%
molecule: Cc1cc(C)c(/C=C2\C(=O)Nc3ccccc32)[nH]1
  A: -15% | B: 8% | C: -2% | D: 10% | E: 0%
molecule: C=CCNc1ncnc2c1[nH]c1ccc(C)cc12
  A: -14% | B: 19% | C: 1% | D: 11% | E: -9%
molecule: Nc1ncn([C@H]2C[C@H](O)[C@@H](CO)O2)c(=O)n1
  A: nt | B: -1% | C: -3% | D: 1% | E: nt

The list goes on:
Each structure is followed by: GPR55 antagonists, MgcRacGAP inhibition, Dengue-2 NS5 capping, Large T inhibition, GPR35 arrestin U2OS
> NS(=O)(=O)c1ccc(NC(=O)Nc2ccc(Cl)cc2)cc1
    -19%, 11%, -27%, 6%, -12%
> O=C(N/N=C/c1ccc(Sc2ccccn2)o1)c1cccc([N+](=O)[O-])c1
    -2%, 6%, -8%, 3%, -5%
> Nc1cccc([N+](=O)[O-])c1
    -2%, 0%, -2%, -2%, -6%
> O=c1[nH][nH]c(-c2ccccc2O)c1C(C[N+](=O)[O-])c1ccc(Br)cc1 (stereo unspecified)
    7%, 4%, -3%, 9%, 2%
> Cc1ccc(/C(=C\CN2CCCC2)c2ccccn2)cc1
    9%, -2%, -3%, -1%, -1%
> Clc1ccc(OCCCn2ccnc2)c(Br)c1
    5%, 27%, 0%, 6%, 4%

Shown as tab-separated lines: entries from further up.
structure	GPR55 antagonists	MgcRacGAP inhibition	Dengue-2 NS5 capping	Large T inhibition	GPR35 arrestin U2OS
O=[N+]([O-])/C=C/c1cc2ccccc2[nH]1	-3%	37%	-35%	18%	-1%
CCCC(=O)Nc1ncnc2c1ncn2[C@@H]1O[C@@H]2COP(=O)(O)O[C@H]2[C@H]1OC(=O)CCC	4%	4%&4%	-2%&-7%	10%	-5%
Cc1cc(C)c(/C=C2\C(=O)Nc3ccccc32)[nH]1	-15%	8%	-2%	10%	0%
C=CCNc1ncnc2c1[nH]c1ccc(C)cc12	-14%	19%	1%	11%	-9%
Nc1ncn([C@H]2C[C@H](O)[C@@H](CO)O2)c(=O)n1	nt	-1%	-3%	1%	nt
NS(=O)(=O)c1ccc(NC(=O)Nc2ccc(Cl)cc2)cc1	-19%	11%	-27%	6%	-12%
O=C(N/N=C/c1ccc(Sc2ccccn2)o1)c1cccc([N+](=O)[O-])c1	-2%	6%	-8%	3%	-5%
Nc1cccc([N+](=O)[O-])c1	-2%	0%	-2%	-2%	-6%
O=c1[nH][nH]c(-c2ccccc2O)c1C(C[N+](=O)[O-])c1ccc(Br)cc1 (stereo unspecified)	7%	4%	-3%	9%	2%
Cc1ccc(/C(=C\CN2CCCC2)c2ccccn2)cc1	9%	-2%	-3%	-1%	-1%
Clc1ccc(OCCCn2ccnc2)c(Br)c1	5%	27%	0%	6%	4%

Screening results deposited in PubChem by several laboratories.
